A1 inh = inhibitors of the anti-apoptotic protein A1, read as caspase activation; actives 0.066% (n = 330,000); AID 2462; MEF A1-2A-BIM cells, Caspase-Glo 3/7 luminescence, 3 h; percent of clofoctol response, vehicle zero; caspase activation, % (no concentration beside the values);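 active = over half of replicate activation scores above 10%, or exactly half above 10 with the replicate mean above 10; inconclusive = replicate mean below 10 yet half the replicates above 10; inactive = over half of replicates below 10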;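 also: wells of about 30 µL received 50 nL stock; many hits fall short of the cut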
rRNA inh HTS = inhibits bacterial ribosomal RNA function over humanized ribosomes; E. coli WT GFP vs humanized-ribosome RFP mutants, fluorescence, 24 h; hits give low values; DMSO median 0, no signal -100; GFP signal change (wild-type ribosome), % (no concentration beside the values); actives 1.6% (n = 350,000);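 active = significant combined selectivity score with lowered wild-type GFP, culture density cut under 30%, mutant RFP and density less affected; inactive = any of these conditions unmet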; also: one replicate is shown; some compounds called inactive have numbers as strong as hits
Calb FLC = affects C. albicans growth with fluconazole. C. albicans CaCi-2 (fluconazole-resistant clinical isolate) + fluconazole, Alamar Blue growth, 48 h. growth inhibition, % (concentration not given with the values). actives 0.57% (n = 300,000);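 active = most replicates above 75%; inconclusive = exactly half above 75%; inactive = most below 75%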;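 also: all wells also contain fluconazole at 8 µg/ml as a sub-toxic cotreatment; 0% = median of DMSO wells and 100% = median of geldanamycin control wells; wells of about 8 µL received 7.5 nL stock; the first replicate is given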
T cruzi repl = blocks replication of Trypanosoma cruzi. T. cruzi beta-gal in NIH3T3, luminescence, 90 h. inhibition, % (concentration not given with the values). actives 1.4% (n = 300,000). AID 1885;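 active = mean inhibition across valid replicates above about 55%, limit read from the data; inconclusive = mean below that limit but half or more replicates reach it; inactive = mean below it, under half of replicates reach it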;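 also: signal also drops with host cell toxicity which is not excluded here; 0% = plate median of DMSO wells and 100% = zero luminescence signal; higher percent means less beta-gal luminescence so fewer parasites; stock transfer was 50 nL into about 50 µL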
Vif A3G = inhibitors of Vif binding to APOBEC3G peptide, primary screen, biochemical, TR-FRET, GST-Vif 1-94, biotin-A3G peptide, dose response retest (AID 1117319); TR-FRET GST-Vif / biotin-A3G peptide binding; higher % means a stronger effect; test concentration not given here; strong numbers were not always called active; inhibition, %; hits with a dose series show IC50 in µM; actives 0.57% (n = 260,000);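 active = above the screen mean plus three standard deviations and confirmed in dose response; inconclusive = results disagree or hit not tested in dose response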;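 also: Vif residues 1-94 fused to GST binding biotinylated APOBEC3G peptide 110-148; 0% = full assay without inhibitor and 100% = GST in place of GST-Vif; retest series ran down from 100 µM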
Beta cell apopt = beta cell apoptosis inhibition; actives 0.8% (n = 300,000); INS-1E cytokine-induced death, ATP luminescence, 48 h; percent of positive-control rescue, neutral wells zero; protection from apoptosis, % (no concentration beside the values); AID 435005;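 active = all replicates at 75% or more, or half of them and the mean; inconclusive = half reach 75% but not the mean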;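 also: 0% = cytokine-treated negative control wells and 100% = positive control rescue; higher means more ATP so stronger rescue from cytokine killing; wells of about 40 µL received 100 nL stock; the first replicate is given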
MLL AF4-AF9 inh = MLL-AF4/AF9 protein interaction inhibition | AlphaScreen, biotin-AF4 peptide binding to FLAG-AF9 | inhibition, % at 10 µM | AID 651704 | actives 0.47% (n = 350,000) | P42568;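 active = every replicate reaching a set inhibition limit, whatever the replicate mean, cut at about 25% in these data; inconclusive = mean inhibition reaches that limit but some replicates miss it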;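 also: 0% = plate neutral control median and 100% = total signal loss; the record names both 10 and 1 µM as test concentration; the first replicate is given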
Target sequence (P42568 whole entry, looked up): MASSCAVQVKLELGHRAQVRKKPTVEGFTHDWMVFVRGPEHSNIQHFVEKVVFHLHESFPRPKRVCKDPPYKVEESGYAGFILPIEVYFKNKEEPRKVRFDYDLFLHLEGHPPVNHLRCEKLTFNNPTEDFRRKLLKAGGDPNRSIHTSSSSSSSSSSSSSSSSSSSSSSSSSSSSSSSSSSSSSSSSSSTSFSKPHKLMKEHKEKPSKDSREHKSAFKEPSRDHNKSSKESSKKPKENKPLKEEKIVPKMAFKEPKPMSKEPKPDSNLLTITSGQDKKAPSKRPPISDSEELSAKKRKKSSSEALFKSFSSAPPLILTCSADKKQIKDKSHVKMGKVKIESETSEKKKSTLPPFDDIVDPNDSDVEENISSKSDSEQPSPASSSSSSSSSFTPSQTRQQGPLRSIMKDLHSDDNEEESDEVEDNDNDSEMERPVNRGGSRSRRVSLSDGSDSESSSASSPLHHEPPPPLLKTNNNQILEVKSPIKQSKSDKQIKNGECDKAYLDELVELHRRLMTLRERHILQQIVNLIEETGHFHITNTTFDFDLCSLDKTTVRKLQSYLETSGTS
RanGTP-Imp inh = disruptors of Ran-importin-beta complex formation – biochemical, FRET, CFP-Ran, YFP-importin-beta, homogeneous, primary screen. inhibition, % (no concentration beside the values). AID 2216. cell-free CFP-Ran/YFP-importin-beta FRET ratio. actives 1.1% (n = 300,000);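 active = most replicates above 15%; inconclusive = exactly half above 15%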;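 also: 0% = DMSO wells and 100% = Ran loaded with GDP instead of GTP; wells of about 40 µL received 100 nL stock; the first replicate is given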
rRNA inh HTS OD600 = second read-out of rRNA inh HTS, no call of its own (marks repeat the call); OD600 change, %; measured here: OD600 growth;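 optical density of the mix in the first replicate; 0 = DMSO median and -100 = no signal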
rRNA inh HTS RFP = second read-out of rRNA inh HTS, no call of its own (marks repeat the call); RFP signal change, %; measured here: RFP humanized mutant strains;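 first replicate; 0 = DMSO median and -100 = no signal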
Starred values were filed as active, the others as inactive; ? = inconclusive; . = no result given. Only part of the results is shown (hit frequency here may not be typical).

Below each compound – A1 inh	rRNA inh HTS	rRNA inh HTS OD600	rRNA inh HTS RFP	Calb FLC	T cruzi repl	Vif A3G	Beta cell apopt	MLL AF4-AF9 inh	RanGTP-Imp inh
O=C(NCCS(=O)(=O)N1CCN(c2cccc(Cl)c2)CC1)C1CCCC1
→ -1.1	-2	4	-2.9	-10	9	-4%	-1	-11	-1.2
CNC(=S)NNC(=O)c1cc(-c2cccnc2)nc2ccccc12
→ -11	6	9	0.2	11	2	.	-4	-0.6	4.4
CCN1CCc2c(sc(NC(=S)NC(=O)c3ccccc3)c2C#N)C1
→ -8.6	.	.	.	2	1	-6%	-7	.	141*
CCc1ccc(N(C(=O)c2snc(C(N)=O)c2N)C(C(=O)NC2CCCC2)c2ccncc2)cc1 (stereo unspecified)
→ 0.2	-5	-14	-1.8	-6	7	.	7	2.8	-2.1
COc1ccccc1CCNC(=O)C1CCCO1 (stereo unspecified)
→ 0.3	.	.	.	-2	6	1%	0	.	.
COc1cc(CN2CCC(n3nccc3NC(=O)CCCc3ccccc3)CC2)ccc1F
→ 2.1	-17	-18	2.8	4	15	.	2	1.6	4.9
Cc1[nH]n(-c2ccccc2)c(=S)c1C=NCCCN=Cc1c(C)[nH]n(-c2ccccc2)c1=S
→ -0.2	6	14	7.8	-11	-2	-1%	7	14	1.3
CC(C)(C)c1ccc(OCC(=O)N/N=C/c2ccc(N3CCOCC3)cc2)cc1
→ 0.1	.	.	.	1	-12	2%	-4	.	0.1
CCn1c(COc2cccc(OC)c2)nnc1SCC(=O)N1CCOCC1
→ -0.9	.	.	.	-5	7	4%	-10	.	-4.2
Cc1ccc(C(=O)Oc2oc(-c3ccccc3)nc2C=Nc2ccc(N(C)C)cc2)cc1
→ -1.4	.	.	.	-12	-8	.	-4	4.6	2.8
O=C(Nc1cc(Cl)cc(Cl)c1)C1CCCC1
→ 0.8	-27	-50	12	-1	7	-6%	8	5.2	0.7
CC(=O)c1ccc(NC(=O)COC(=O)Cn2cnc3ccccc32)cc1
→ -0.5	3	-1	0.3	.	.	.	-2	1.0	.
CC(=O)c1cc(CN2CCC(N3CCC(C(=O)N4CCCC4)CC3)CC2)cs1
→ 2.0	14	9	2.9	2	-16	.	-5	3.0	2.4
NC(=O)C1(N2CCCCC2)CCN(C(=O)c2cccs2)CC1
→ 0.9	-2	4	-1.4	4	-10	20%	-4	-2.6	3.1
CN(C)S(=O)(=O)Nc1cccc(-c2cn3c(n2)SCC3)c1
→ 0.3	6	10	-0.8	-4	-6	2%	-8	0.4	-1.4
Cc1ccc(C)c(OCC(O)CN2CCC(C)CC2)c1C (stereo unspecified)
→ -0.4	.	.	.	-9	-15	11%	1	.	-4.4
COc1ccc(-c2noc(CCCC(=O)NC3CCCCC3)n2)cc1
→ 0.3	2	1	-0.3	-19	10	.	11	3.4	-0.2
CCSc1nc(-c2ccc(OC)cc2)ccc1C#N
→ -0.1	.	.	.	30	5	7%	.	.	1.4
O=C(CSc1nnc(NC(=O)C2CC2)s1)Nc1cccc(F)c1
→ 0.2	-2	2	-1.8	-1	-5	.	-2	-2.1	1.2
COc1ccc(CCNC(=O)c2cccs2)cc1
→ 0.1	-8	-4	1.1	3	-3	.	2	-2.0	2.1

Quoted at random: two entries already listed, in no set order.
Below each compound – A1 inh	rRNA inh HTS	rRNA inh HTS OD600	rRNA inh HTS RFP	Calb FLC	T cruzi repl	Vif A3G	Beta cell apopt	MLL AF4-AF9 inh	RanGTP-Imp inh
COc1ccc(CCNC(=O)c2cccs2)cc1
→ 0.1	-8	-4	1.1	3	-3	.	2	-2.0	2.1
CCc1ccc(N(C(=O)c2snc(C(N)=O)c2N)C(C(=O)NC2CCCC2)c2ccncc2)cc1 (stereo unspecified)
→ 0.2	-5	-14	-1.8	-6	7	.	7	2.8	-2.1

Continuation:
Below each compound – A1 inh	rRNA inh HTS	rRNA inh HTS OD600	rRNA inh HTS RFP	Calb FLC	T cruzi repl	Vif A3G	Beta cell apopt	MLL AF4-AF9 inh	RanGTP-Imp inh
Cc1sc2nc(C3CC3)nc(SCC(=O)N3CC(=O)Nc4ccccc43)c2c1C
→ -1.2	.	.	.	13	-10	-16%	-5	.	0.7
COc1ccc(CCNS(=O)(=O)c2ccc(Br)cc2)cc1
→ 0.7	-37	-54	-6.5	-47	4	.	-7	-0.6	-3.8
CCC(C)[C@H](NC(=O)[C@@H]1Cc2ccccc2CN1)C(=O)Nc1ccc2c(c1)OCO2 (stereo partly specified)
→ 0.5	2	7	-1.6	8	7	.	-1	6.9	0.9
O=C(O)c1ccc(N2C(=O)CC(N3C(=O)/C(=C/c4ccc(Cl)cc4)SC3=S)C2=O)cc1 (stereo unspecified)
→ 0.7	5	5	-6.6	-4	-1	9%	4	0.9	-5.0
Cc1sc(NC(=O)CN2CCCC2)nc1-c1ccc2c(c1)CCN2C(=O)c1ccc(F)cc1
→ -0.4	-7	-38	3.8	-7	-5	.	10	18	3.8
Cc1cc2nc(-c3ccccc3)cc(=O)n2[nH]1
→ -4.4	-9	-3	3.9	-5	8	.	-4	49*	-0.4
COc1ccc(CN2C(=O)c3cccnc3C2=O)cc1S(=O)(=O)N1CCOc2ccc(Cl)cc21
→ 1.4	1	-5	-0.3	0	-7	-16%	-5	-16	0.1
CCOc1c(CNCCCSc2nc(C)cc(C)n2)cccc1OC
→ 1.4	12	12	5.5	-31	15	.	-2	0.6	-1.8
CC1CCN(C(=O)N[C@@H](Cc2ccccc2)C(=O)O)CC1
→ 0.5	.	.	.	-1	-7	?	-7	.	?
COc1ccc(C(CCN)c2ccc3c(c2)OCO3)cc1 (stereo unspecified)
→ 0.3	14	6	1.9	-5	60*	5%	-1	3.8	-3.9
Cn1c(SCC(N)=O)nnc1-c1ccc(S(=O)(=O)N2CCCC2)cc1
→ ?	6	7	-2.6	6	-22	-4%	5	-2.6	-0.7
COC(=O)c1ccc(CO/N=C2\CCCc3nonc32)cc1
→ -0.4	-6	-2	-0.4	-9	-15	0%	-3	1.1	-3.5
CCC(C)(C)n1nnnc1C(C(C)C)N(CCCO)Cc1cc2cc(C)ccc2[nH]c1=O (stereo unspecified)
→ 0.3	.	.	.	-5	11	21%	-12	.	-4.8
CC(=O)NC1(NC(C)=O)CCN(C)CC1
→ 0.5	.	.	.	2	-1	19%	-5	-0.8	0.9
Cc1ccc(N2C(=O)N(CC(=O)Nc3ccc(C)cc3Cl)C(=O)C2C)cc1 (stereo unspecified)
→ -0.1	-2	-23	-2.4	-1	0	10%	1	-1.9	-1.8
C/C(=N\NC(=O)c1ccn(C)n1)c1cccc(NC(=O)c2ccncc2)c1
→ -2.0	.	.	.	22	1	-2%	4	.	-1.8
Cc1csc(NC(=O)c2ccc(N3CCCC3=O)cc2)n1
→ -7.5	15	12	3.1	-11	0	11%	14	-0.5	0.3
Cc1occc1C(=O)NNC(=O)C1CCCC1
→ -0.9	1	5	-1.1	2	-13	.	-1	-10	-1.5
COc1cc(OC)cc(C(=O)Nc2ccc(C(=O)NCC3CCCO3)cc2)c1 (stereo unspecified)
→ -0.6	-7	-5	-6.5	8	-9	.	2	-0.3	-0.1
CCC(=O)c1ccc(OCC(=O)OCC(=O)N2CCCc3ccccc32)cc1
→ -0.3	1	-6	-0.5	0	-12	-2%	-3	0.5	0.9
Cc1cc(C)c(NC(=O)CN2CCOCCOCCOCCOCC2)c(C)c1
→ 0.2	.	.	.	6	-2	-4%	-1	.	-3.5
O=C(CNC(=O)c1ccc(Cl)cc1)c1ccc(Br)cc1
→ -0.9	1	2	-1.1	-2	-3	-9%	-1	5.8	-2.3
COc1cccc(NC(=S)N2CCN(C)CC2)c1
→ 0.9	12	10	-2.4	2	-14	.	.	0.8	5.5
CC(=O)CSc1cc(-c2ccccc2)nc2ncnn12
→ -0.5	0	1	0.0	-8	-12	-4%	-7	-2.8	-0.2
CCOC(=O)CNS(=O)(=O)c1ccc2c3c(cccc13)C(=O)N2CC
→ 0.6	-3	0	-0.8	-9	-8	-12%	.	-5.1	21*
CCCNc1c(NS(=O)(=O)c2ccc(C)cc2C)c(=O)oc2ccccc12
→ -0.3	-16	-24	3.1	-12	0	11%	-3	-1.4	-2.0
N#Cc1ccccc1CSc1ccccn1
→ 1.3	.	.	.	2	-17	-7%	-4	.	-0.5
Fc1ccc(N/N=C/c2ccncc2)c(F)c1
→ -5.7	.	.	.	?	30	.	3	1.4	-2.5
O=C(C1CCC(CNS(=O)(=O)c2cccs2)CC1)N1CCN(c2ccc(F)cc2)CC1 (stereo unspecified)
→ -0.1	4	5	1.0	7	6	-6%	3	-3.1	-2.9
COc1ccc(/C=C/C(=O)NC(=S)NNC(=O)c2cnccn2)cc1
→ -0.2	-4	-4	1.1	3	65*	18%	76*	-20	1.5
N#Cc1ccc(OCC(=O)OCC(=O)Nc2cc(C(F)(F)F)ccc2N2CCOCC2)cc1
→ -0.2	-4	-2	-4.0	-9	-11	.	-50	-1.2	1.9
CC[C@@H]1C/C=C\Cc2ccccc2[C@@H](C(=O)C[C@H](O)CC(C)=O)OC1=O
→ 0.4	0	-1	-0.3	.	.	-2%	-6	-0.6	.
Cc1ccc(S(=O)(=O)NCCNC(=O)c2cc(OCC(F)(F)F)ccc2OCC(F)(F)F)cc1
→ 0.9	.	.	.	1	9	-3%	-4	.	2.2

RanGTP-Imp inh: what is marked active above
compound | rRNA inh HTS | rRNA inh HTS OD600 | rRNA inh HTS RFP | Vif A3G | MLL AF4-AF9 inh | RanGTP-Imp inh
CCN1CCc2c(sc(NC(=S)NC(=O)c3ccccc3)c2C#N)C1 | . | . | . | -6% | . | 141*
CCOC(=O)CNS(=O)(=O)c1ccc2c3c(cccc13)C(=O)N2CC | -3 | 0 | -0.8 | -12% | -5.1 | 21*

Screening data from PubChem BioAssay.
